High-throughput results deposited in PubChem by several laboratories.
PKD1 inh: PKD1 (human) kinase inhibition; Q15139; PKD1 kinase fluorescence polarization assay; inhibition, %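 (about 10 µM by stock and volumes)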; hit rate 0.056% among 200,000;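 active = inhibition of 50% or more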;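 also: controls were vehicle for no effect and a reference inhibitor for full effect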
HSV replic up: increases HSV replication in cells | hit rate 0.005% among 220,000 | maximum fold increase | AID 1956 | HSV replication augmentation in cells, fold increase;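 active = peak rise of 1.5-fold or more in the series; tested in PC3 cells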;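 also: first round at 10 µM; read as green reporter fluorescence; hits show the peak of a series up to 25 µM; 1 = signal of infected wells without compound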
RGS16-Gao: modulates binding between human RGS16 and Galphao; O15492+P09471; bead-based flow cytometry RGS16-Galphao binding, fluorescence; actives lie on both sides; binding response (% of control), % at 10 µM; hit rate 0.38% among 220,000; AID 1441;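 active = below 25% or above 175%, edge rows of some plates excepted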;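 also: Galphao activated by GDP with aluminum fluoride before binding; 100% = wells without compound and 0% = beads without RGS; some results beyond the cut were filed as inactive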
Target sequence (O15492 whole entry, looked up): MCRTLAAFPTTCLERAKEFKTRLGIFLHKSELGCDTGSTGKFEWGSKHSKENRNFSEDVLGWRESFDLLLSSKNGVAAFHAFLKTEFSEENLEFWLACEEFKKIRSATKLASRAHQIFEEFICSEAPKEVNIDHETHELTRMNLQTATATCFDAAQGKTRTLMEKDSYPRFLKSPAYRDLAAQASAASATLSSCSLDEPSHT
Target sequence (P09471 whole entry, looked up): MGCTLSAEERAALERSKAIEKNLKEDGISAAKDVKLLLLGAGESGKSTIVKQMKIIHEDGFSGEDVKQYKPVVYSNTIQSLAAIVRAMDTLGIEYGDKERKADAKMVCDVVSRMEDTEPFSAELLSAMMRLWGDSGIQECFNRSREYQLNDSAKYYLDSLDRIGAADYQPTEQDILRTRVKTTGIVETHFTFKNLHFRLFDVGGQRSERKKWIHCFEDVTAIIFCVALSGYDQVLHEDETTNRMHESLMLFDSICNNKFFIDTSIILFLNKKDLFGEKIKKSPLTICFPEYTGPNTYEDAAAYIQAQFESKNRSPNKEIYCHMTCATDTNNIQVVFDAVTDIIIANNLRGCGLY
GALR2 ag: activates the human galanin receptor 2; O43603; GALR2-expressing cells, agonist activation read-out; activation, %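 (tested at 5 µM)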; hit rate 0.48% among 140,000; AID 803;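 active = above mean plus 3 SD of all compounds, about 5% in these data, not always enough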;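 also: 0% = vehicle buffer wells and 100% = reference agonist at full effect; tested in CHO reporter cells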
Target sequence (O43603 whole entry, looked up): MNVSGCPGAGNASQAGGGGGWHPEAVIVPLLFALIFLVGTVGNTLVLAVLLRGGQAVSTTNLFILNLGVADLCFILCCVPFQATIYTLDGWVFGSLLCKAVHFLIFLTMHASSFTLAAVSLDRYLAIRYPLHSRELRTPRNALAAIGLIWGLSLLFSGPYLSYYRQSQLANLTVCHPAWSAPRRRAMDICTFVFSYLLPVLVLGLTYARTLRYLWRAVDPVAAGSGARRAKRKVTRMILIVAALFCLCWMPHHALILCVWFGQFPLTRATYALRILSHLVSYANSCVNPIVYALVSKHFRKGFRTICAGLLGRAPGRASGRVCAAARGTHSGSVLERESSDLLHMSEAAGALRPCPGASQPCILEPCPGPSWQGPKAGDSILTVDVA
INS promoter inh: TRM-6 insulin promoter activity inhibition | inhibition, % at 2 µM | TRM-6 cells (human fetal islet line), insulin promoter-eGFP reporter, imaging; reporter expression induced with tamoxifen | hit rate 0.9% among 130,000;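 active = inhibition above the mean plus 3 SD, with well images judged a real hit on visual review, cut at about 60% in these data, passing the limit was not always enough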
INS promoter inh cell count: also measured in INS promoter inh; calls as there; normalized cell count, %; measured here: cell count, toxicity; reference of the scale not given here;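 cells exposed to compound for 48 h; stained nuclei by imaging scaled within each plate; lower means fewer cells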
HSV replic up primary fold: recorded beside HSV replic up, whose call it bears; fold increase; compound at 10 µM; measured here: primary screen fold increase 10 uM; tested in PC3 cells;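 GFP signal in the first replicate; 1 = infected wells without compound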
An asterisk follows results filed as active.

`CCOC(=O)C1CCCN(c2nc(C)nc3c2oc2ccccc23)C1` (stereo not given) gave PKD1 inh -7, HSV replic up inactive, RGS16-Gao 103, GALR2 ag -2.2 and HSV replic up primary fold 1.1.
`COc1ccc(C2=Nn3c(nnc3-c3ccccn3)SC2)cc1OC` gave PKD1 inh 11, HSV replic up inactive, RGS16-Gao 107, GALR2 ag 1.1 and HSV replic up primary fold 0.87.
O=C(CCC1CCCCC1)NCc1ccccn1 was read as PKD1 inh -4, HSV replic up inactive, RGS16-Gao 99, GALR2 ag 1.8, INS promoter inh 18, INS promoter inh cell count 177 and HSV replic up primary fold 1.
`COc1ccc(O[C@H]2C=C[C@@H](c3ccccc3)O[C@@H]2COC(=O)CC/C(C)=N/O[C@H](C)c2cn([C@@H]3COC[C@H]3O)nn2)cc1` gave PKD1 inh -4, RGS16-Gao 104, GALR2 ag -1.5, INS promoter inh -65 and INS promoter inh cell count 88.
`COc1cc(CN2CCC(C(=O)NC3CCCC3)CC2)cc(OC)c1O` gave PKD1 inh -9, HSV replic up inactive, RGS16-Gao 102, GALR2 ag -0.6 and HSV replic up primary fold 0.95.
COc1cccc(NC(=O)C2CC(=O)n3cnnc3S2)c1 (stereo not given) was read as PKD1 inh -1, HSV replic up inactive, RGS16-Gao 105, GALR2 ag -3.8, INS promoter inh -29, INS promoter inh cell count 42 and HSV replic up primary fold 1.
`Cc1ccccc1CN(c1ccc(C(=O)Nc2ccccc2C(=O)NCc2ccco2)cc1)S(C)(=O)=O` gave PKD1 inh 0, HSV replic up inactive, RGS16-Gao 111, GALR2 ag -0.9, INS promoter inh 7, INS promoter inh cell count 100 and HSV replic up primary fold 0.91.
Screening Cc1ccc(N2C(=O)CC(Sc3nc(-c4ccccc4)c4cc(Cl)ccc4n3)C2=O)c(C)c1 (stereo not given) returned PKD1 inh -4, HSV replic up inactive, RGS16-Gao 96, GALR2 ag -0.9 and HSV replic up primary fold 0.97.
For CN(C)CC/C=C1\c2ccccc2Sc2ccc(Cl)cc21 the results were PKD1 inh 2, HSV replic up inactive, RGS16-Gao 105, GALR2 ag 0.7, INS promoter inh 41, INS promoter inh cell count 50 and HSV replic up primary fold 0.68.
For O=C(NNc1ccc([N+](=O)[O-])cc1)c1ccccc1F the results were PKD1 inh 1, HSV replic up inactive, RGS16-Gao 105 and HSV replic up primary fold 0.96.
`COc1cccc(-c2nc(CS(=O)(=O)CC(=O)N3CCc4ccccc4C3)c(C)o2)c1` gave PKD1 inh -1, HSV replic up inactive, RGS16-Gao 92, GALR2 ag -0.6 and HSV replic up primary fold 1.1.
For CCOC(=O)c1c(C)[nH]c2c1-c1ccccc1C(=O)C2=O the results were PKD1 inh -4, HSV replic up inactive, RGS16-Gao 98, GALR2 ag -0.2, INS promoter inh -74, INS promoter inh cell count 9 and HSV replic up primary fold 0.63.
`Cc1ccc(CNC(=O)C(Cc2ccccc2)NS(=O)(=O)c2ccc3c(c2)CCC(=O)N3)cc1` (stereo not given) gave PKD1 inh -12, HSV replic up inactive, RGS16-Gao 103, GALR2 ag -2.3 and HSV replic up primary fold 0.91.
For O=C(O)C1=C(C(=O)Nc2cccc(C(F)(F)F)c2)CCCC1 the results were PKD1 inh -7, HSV replic up inactive, RGS16-Gao 75, INS promoter inh -7, INS promoter inh cell count 55 and HSV replic up primary fold 0.93.
For Cc1ccc(NC2=C(NC(=O)c3ccccc3)C(=O)c3ccccc3C2=O)cc1Cl the results were PKD1 inh 2, HSV replic up inactive, RGS16-Gao 75, GALR2 ag -0.6 and HSV replic up primary fold 0.69.
Screening O=C(Nc1ccc2snnc2c1)N1CCSCC1 returned PKD1 inh -12, HSV replic up inactive, RGS16-Gao 100, GALR2 ag 0.1, INS promoter inh 15, INS promoter inh cell count 83 and HSV replic up primary fold 0.98.
Screening CN(C)C(=O)c1ccc(NC(=O)c2cc(-n3cnnc3)ccc2Cl)cc1 returned PKD1 inh -4, HSV replic up inactive, RGS16-Gao 104, GALR2 ag 0.3, INS promoter inh -63, INS promoter inh cell count 111 and HSV replic up primary fold 0.86.
COc1ccccc1N=c1oc2cc(O)ccc2cc1C(N)=O was read as PKD1 inh -5, HSV replic up inactive, RGS16-Gao 85, GALR2 ag 20* and HSV replic up primary fold 0.8.
`Cc1ccc(OCCC(=O)OCC(=O)Nc2cc(S(=O)(=O)N(C)C)ccc2C)cc1` gave PKD1 inh -2, HSV replic up inactive, RGS16-Gao 106, INS promoter inh -47, INS promoter inh cell count 123 and HSV replic up primary fold 0.92.
For COc1ccc(-n2nc3cc(C)c(N)c(Br)c3n2)cc1 the results were PKD1 inh 2, HSV replic up inactive, RGS16-Gao 93, GALR2 ag 0.4, INS promoter inh -3, INS promoter inh cell count 77 and HSV replic up primary fold 1.1.
`O=C1CC2(CON=C2c2ccc(F)cc2)C(=O)N1c1ccc(F)cc1` (stereo not given) gave PKD1 inh -5, HSV replic up inactive, RGS16-Gao 97, GALR2 ag -0.7 and HSV replic up primary fold 0.98.
For COc1ccc(-c2noc(CSc3nc4ccccc4c(=O)n3-c3ccccc3)n2)cc1 the results were PKD1 inh -2, HSV replic up inactive, RGS16-Gao 103, GALR2 ag -1.0, INS promoter inh 0, INS promoter inh cell count 10 and HSV replic up primary fold 1.
Cc1ccc(C(=O)N2CCCCC2C(=O)O)o1 (stereo not given) was read as PKD1 inh 3, HSV replic up inactive, RGS16-Gao 99 and HSV replic up primary fold 1.
COc1ccc(CCNC(=O)CC2SC(=Nc3cc(C)cc(C)c3)NC2=O)cc1OC (stereo not given) was read as PKD1 inh -5, HSV replic up inactive, RGS16-Gao 98 and HSV replic up primary fold 0.85.
For COc1ccc(NC(=O)c2cc(-c3ccccc3)nc3c2c(C)nn3-c2ccccc2)c(OC)c1 the results were PKD1 inh -8, HSV replic up inactive, RGS16-Gao 98, GALR2 ag -0.8, INS promoter inh 34, INS promoter inh cell count 80 and HSV replic up primary fold 0.98.
`COC(=O)c1ccc(Oc2c(C)oc3c(CN4CCN(C)CC4)c(O)ccc3c2=O)cc1` gave PKD1 inh 5, HSV replic up inactive, RGS16-Gao 113, GALR2 ag -0.7, INS promoter inh 38, INS promoter inh cell count 112 and HSV replic up primary fold 1.
`Cc1cc(F)ccc1NC(=O)c1ccc(NS(=O)(=O)c2cc(C(C)(C)C)ccc2C)cc1` gave PKD1 inh 6, HSV replic up inactive, RGS16-Gao 121, GALR2 ag -0.9, INS promoter inh -7, INS promoter inh cell count 97 and HSV replic up primary fold 0.89.
`COc1cc(C(=S)N2CCCCC2)ccc1OCC(=O)N1CCCC1` gave PKD1 inh -11, HSV replic up inactive, RGS16-Gao 102, GALR2 ag -0.9, INS promoter inh 30, INS promoter inh cell count 65 and HSV replic up primary fold 0.95.
Cn1c(SCc2cccc([N+](=O)[O-])c2)nc2c(c1=O)SCC2 was read as PKD1 inh -3, HSV replic up inactive, RGS16-Gao 102 and HSV replic up primary fold 0.78.
For Cc1cc(C(=O)OCC(=O)Nc2ccc(F)c(F)c2)c(C)o1 the results were PKD1 inh -4, HSV replic up inactive, RGS16-Gao 103, GALR2 ag -0.9, INS promoter inh -4, INS promoter inh cell count 86 and HSV replic up primary fold 1.1.

Three structures from above, arranged by heavy-atom count, rising:
Cc1ccc(C(=O)N2CCCCC2C(=O)O)o1 (stereo not given) was read as PKD1 inh 3, HSV replic up inactive, RGS16-Gao 99 and HSV replic up primary fold 1.
Screening O=C(Nc1ccc2snnc2c1)N1CCSCC1 returned PKD1 inh -12, HSV replic up inactive, RGS16-Gao 100, GALR2 ag 0.1, INS promoter inh 15, INS promoter inh cell count 83 and HSV replic up primary fold 0.98.
COc1ccccc1N=c1oc2cc(O)ccc2cc1C(N)=O was read as PKD1 inh -5, HSV replic up inactive, RGS16-Gao 85, GALR2 ag 20* and HSV replic up primary fold 0.8.

(continued)
Screening COc1cccc2cc(NC(=O)C3CCCCC3)c(=O)oc12 returned PKD1 inh -12, HSV replic up inactive, RGS16-Gao 99, GALR2 ag -0.8, INS promoter inh 45, INS promoter inh cell count 196 and HSV replic up primary fold 0.79.
For C=CCN1C(=O)C(C)(C)Nc2ccccc21 the results were PKD1 inh -4, HSV replic up inactive, RGS16-Gao 101, GALR2 ag -0.7, INS promoter inh 44, INS promoter inh cell count 104 and HSV replic up primary fold 0.95.
For O=C(Oc1ccccc1N1C(=O)C2CCCCC2C1=O)c1ccccc1F (stereo not given) the results were PKD1 inh 0, HSV replic up inactive, RGS16-Gao 105, GALR2 ag -0.1, INS promoter inh 28, INS promoter inh cell count 130 and HSV replic up primary fold 1.
For CCCCN(C(=O)c1cccc(S(=O)(=O)N2CCOCC2)c1)c1c(N)n(CCC)c(=O)[nH]c1=O the results were PKD1 inh 4, HSV replic up inactive, RGS16-Gao 109 and HSV replic up primary fold 0.93.
For CC(=O)Nc1ccc(S(=O)(=O)N2c3ccccc3C(C)=CC2(C)C)cc1 the results were PKD1 inh -7, HSV replic up inactive, RGS16-Gao 112 and HSV replic up primary fold 0.69.
`Cc1ccc(C2=CC(c3cccs3)n3nnnc3N2)cc1` (stereo not given) gave PKD1 inh -2, RGS16-Gao 114, GALR2 ag 4.0, INS promoter inh 38 and INS promoter inh cell count 55.
`CCOC(=O)C1=C(N)N(c2ccc(C)cc2)C2=C(C(=O)CCC2)C1c1cccs1` (stereo not given) gave PKD1 inh -5, HSV replic up inactive, RGS16-Gao 102, GALR2 ag 0.3, INS promoter inh 14, INS promoter inh cell count 148 and HSV replic up primary fold 0.86.
For CCCCn1c(SCC(=O)NCc2cccs2)nc2c1c(=O)n(C)c(=O)n2C the results were PKD1 inh -10, HSV replic up inactive, RGS16-Gao 107, GALR2 ag 1.2, INS promoter inh -40, INS promoter inh cell count 89 and HSV replic up primary fold 0.75.
`C/C(=N\NC(=O)c1csc2ccccc12)c1ccc(O)cc1` gave PKD1 inh -3, HSV replic up inactive, RGS16-Gao 98, GALR2 ag -2.8, INS promoter inh 17, INS promoter inh cell count 137 and HSV replic up primary fold 0.89.
O=C(O)c1cc(S(=O)(=O)N2CCCCCC2)ccc1Cl was read as PKD1 inh -7, HSV replic up inactive, RGS16-Gao 107, GALR2 ag -2.2 and HSV replic up primary fold 0.86.
Screening CCOC(=O)N1CCC2(CC1)C(C#N)=C(N)OC1=C2C(=O)CCC1 returned PKD1 inh -2, HSV replic up inactive, RGS16-Gao 95, INS promoter inh 8, INS promoter inh cell count 113 and HSV replic up primary fold 0.95.
COc1ccccc1C(=O)N1c2ccccc2Sc2ccccc21 was read as PKD1 inh -5, HSV replic up inactive, RGS16-Gao 104, GALR2 ag 0.2, INS promoter inh -38, INS promoter inh cell count 122 and HSV replic up primary fold 0.95.
`CCOC(=O)c1ccc(Oc2nc(SC)nc(N(C)C)n2)cc1` gave PKD1 inh 0, HSV replic up inactive, RGS16-Gao 100, GALR2 ag -1.6, INS promoter inh 18, INS promoter inh cell count 127 and HSV replic up primary fold 1.1.
CCO[C@H]1OC(C(N)=O)=C[C@@H](C2CCCCC2)[C@@H]1CCCO was read as PKD1 inh 1, HSV replic up inactive, RGS16-Gao 107 and HSV replic up primary fold 0.88.
O=C(/C=C/c1ccc(S(=O)(=O)N2CCOCC2)cc1)N1CCN(c2ccc(F)cc2)CC1 was read as HSV replic up inactive, RGS16-Gao 97 and HSV replic up primary fold 0.83.
Screening COC(=O)Nc1nc2c(s1)CCCC2 returned PKD1 inh -1, HSV replic up inactive, RGS16-Gao 96, GALR2 ag -0.7 and HSV replic up primary fold 1.

Entries listed so far with an NH in an aromatic ring, in the order listed:
For CCOC(=O)c1c(C)[nH]c2c1-c1ccccc1C(=O)C2=O the results were PKD1 inh -4, HSV replic up inactive, RGS16-Gao 98, GALR2 ag -0.2, INS promoter inh -74, INS promoter inh cell count 9 and HSV replic up primary fold 0.63.
For CCCCN(C(=O)c1cccc(S(=O)(=O)N2CCOCC2)c1)c1c(N)n(CCC)c(=O)[nH]c1=O the results were PKD1 inh 4, HSV replic up inactive, RGS16-Gao 109 and HSV replic up primary fold 0.93.
